TRPML1 agonist: qHTS for Agonists of the Human Mucolipin Transient Receptor Potential 1 (TRPML1). Mucolipin-1 (Homo sapiens), Q9GZU1. TRPML1-expressing cells, Ca2+ dye fluorescence, FDSS; host cell line not named in the record; reference of the full effect not given here. activation, % (test concentration not listed). 0.12% of 410,000 active. AID 624414, 2012; in the data active = activation above about 50%; inconclusive = about 30% to 50%; inactive = below about 30%; also: 0% is about no effect; the text of the record puts the active cut at 80%
Target sequence (Q9GZU1 whole entry, looked up): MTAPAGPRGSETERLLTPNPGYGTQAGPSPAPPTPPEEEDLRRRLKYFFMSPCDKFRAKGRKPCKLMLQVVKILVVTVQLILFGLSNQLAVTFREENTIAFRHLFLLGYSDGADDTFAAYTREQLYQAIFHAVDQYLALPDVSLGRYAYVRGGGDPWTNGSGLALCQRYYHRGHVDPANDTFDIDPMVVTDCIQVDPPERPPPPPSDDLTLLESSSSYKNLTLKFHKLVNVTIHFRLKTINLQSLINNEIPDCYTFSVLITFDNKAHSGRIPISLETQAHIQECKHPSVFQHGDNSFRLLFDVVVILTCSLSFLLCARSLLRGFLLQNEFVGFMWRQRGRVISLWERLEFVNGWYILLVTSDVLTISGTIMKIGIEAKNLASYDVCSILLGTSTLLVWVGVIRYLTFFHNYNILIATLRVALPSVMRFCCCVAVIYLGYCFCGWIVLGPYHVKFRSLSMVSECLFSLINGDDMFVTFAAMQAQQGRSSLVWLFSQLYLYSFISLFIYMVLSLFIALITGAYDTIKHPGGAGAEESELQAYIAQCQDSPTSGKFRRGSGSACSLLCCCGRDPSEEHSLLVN
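Kinetic FDSS Ca2+ read in Tet-induced TRPML1-DL cells (ABD Ca8 dye plus quencher, 45-90 min RT loading): baseline, then compound, then 110 s agonist window; EC80 agonist 54-4 at 4uM final added afterwards for a 110 s antagonist window.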
PINK1 expr mod: A Quantitative High throughput Screen to Identify Chemical Modulators of PINK1 Expression; PINK1 immunofluorescence, high-content cytometry, 24 h; 0.2% of 410,000 active; Potency, µM (top dose mostly 76.6 µM), inactives show at the highest dose activation (PINK1 increase), hits mostly activators; active = well fitted activation curve with a large enough effect; inconclusive = small, poorly fitted or top-dose-only effect; inactive = flat fitted curve, though single readings scatter; cell line not stated here;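 also: potency is read from the fitted curve at half-maximal effect; % of control where 0% means no effect; nearly all actives have a fitted effect of over 65% in size; a mitochondrial uncoupler was the plate control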
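Decision-based qHTS: stable cells, 24 h exposure to five compound concentrations, CCCP as control. Fixed cells stained for PINK1 plus nuclear, mitochondrial and cell markers, cytometer read.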
The depositor's hits bear a star; ? = inconclusive.

Screens in order: TRPML1 agonist, PINK1 expr mod
COc1ccc(OC)c(CCNC(=O)c2cc3c(=O)n(C)c4ccccc4c3n2C)c1
  -0.6, 0.4%
Cc1ccccc1C(=O)N(Cc1sccc1C)C1CCS(=O)(=O)C1 (stereo not drawn)
  1.1, -1.3%
COC(=O)c1ccc2oc(=O)c(S(=O)(=O)c3ccc(C)cc3)cc2c1
  0.6, 1.8%
CCOc1ccc(-c2cc(C(=O)N3CCN(c4cccc(C)c4)C(C)C3)c3ccccc3n2)cc1 (stereo not drawn)
  -0.5, 5.6%
Cc1ccc(C(=O)c2oc3ccccc3c2NC(=O)Cc2coc3ccc(C)cc23)cc1
  -0.5, -0.8%
CCc1ccc(NC(=O)CSC2=Nc3ccccc3C3=NC(CC(=O)NCc4ccccc4)C(=O)N23)cc1 (stereo not drawn)
  0.6, 0.5%
CSc1ccc(NC(=O)C2CCN(c3ncccn3)CC2)cc1
  -0.9, 2.6%
Cc1ccc(-n2nc(C)c3c(C)cc(=O)n(CC(=O)Nc4cccc(C)c4C)c32)cc1
  1.1, 1.9%
Cc1ccc(NCc2ccccc2-c2nnc(-c3ccccc3Cl)o2)c(C)c1
  1.3, -1.8%
CC(=O)c1cccc(NC(=O)c2ccc(Cl)c(S(=O)(=O)N3CCOCC3)c2)c1
  -1.0, -0.3%
COc1ccc(C(=O)NCCn2cc(SCc3cc(C)ccc3C)c3ccccc32)cc1
  2.7, -0.4%
CCc1ccc(Cn2c(CNS(=O)(=O)c3ccc(F)c(Cl)c3)nc3cccnc32)cc1
  3.8, 1.9%
COc1ccc(C2CC(=O)N(CC(=O)Nc3cc(C)ccc3C)c3ccccc3S2)cc1 (stereo not drawn)
  3.1, 1.4%
CC(C)OCCCn1c(SCC(=O)Nc2ccc(F)cc2)nc2c(sc3ccccc32)c1=O
  -0.9, 3.0%
CC(C)CNC(=O)N1[C@H](c2cccs2)[C@@H](C)C(=O)[C@@H](C)[C@@H]1c1cccs1
  -0.1, -0.5%
Cc1ccc(NC(=O)c2nnn(CC(=O)Nc3ccc(C)c(Cl)c3)c2N)c(C)c1
  0.2, -6.3%
O=C(NC1CC(=O)N(c2ccc(Cl)cc2)C1)c1cccs1 (stereo not drawn)
  0.2, 1.9%
CCOCCOC(=O)c1ccc(NC(=O)/C=C/c2ccc(OC)c(OC)c2)cc1
  -0.6, 3.5%
CCc1ccc(NS(=O)(=O)c2cc(-c3cnc(C4CC4)o3)ccc2C)cc1
  0.5, 6.7%
CCc1ccc(C(=O)c2cn(CC(=O)Nc3ccc4c(c3)OCO4)c3ccc(OC)cc3c2=O)cc1
  -0.3, 8.9%
COc1ccc(CC(=O)NCc2ccc3c(c2)CCN3C(=O)c2ccccc2)cc1OC
  1.4, 1.2%
CN(CC(=O)NCc1ccc(Cl)cc1)S(=O)(=O)c1ccc2c(c1)c(=O)n(C)c(=O)n2C
  0.0, 0.1%
O=C(Nc1ccc(Br)c(Cl)c1)c1ccc(C(=O)Nc2ccc(Br)c(Cl)c2)cc1
  0.5, -0.9%
COc1ccccc1CNC(=O)CSc1nc2nc(C)c(Cc3ccccc3C)c(C)n2n1
  0.1, -0.7%
O=C(Nc1c(C(=O)c2ccccc2)oc2ccccc12)c1cc(=O)c2ccccc2o1
  -0.8, 1.9%
COc1cccc(-c2nc(SCC(=O)Nc3ccc4c(c3)OCO4)c(-c3ccccc3)[nH]2)c1
  2.1, 0.4%
CCOC(=O)c1cc(S(=O)(=O)N2CCN(c3cc(C)ccc3C)CC2)[nH]n1
  1.2, 2.0%
CCCN1CCCc2cc(CN(CCCN3CCOCC3)C(=O)Nc3ccc(Cl)c(Cl)c3)ccc21
  1.2, ?
Cc1ccc(C)c(N2CCN(C(=O)c3cc(S(=O)(=O)N4CCC(C)CC4)cn3C)CC2)c1
  1.5, 1.4%
Cc1ccc(NC(=O)Cn2c(=O)nc(-c3ccccc3)c3ccccc32)cc1
  2.5, 0.7%

4 compounds out of the list above, ordered by the value under PINK1 expr mod, highest first:
Molecule | PINK1 expr mod
CCOc1ccc(-c2cc(C(=O)N3CCN(c4cccc(C)c4)C(C)C3)c3ccccc3n2)cc1 (stereo not drawn) | 5.6%
CCOC(=O)c1cc(S(=O)(=O)N2CCN(c3cc(C)ccc3C)CC2)[nH]n1 | 2.0%
CCc1ccc(NC(=O)CSC2=Nc3ccccc3C3=NC(CC(=O)NCc4ccccc4)C(=O)N23)cc1 (stereo not drawn) | 0.5%
Cc1ccccc1C(=O)N(Cc1sccc1C)C1CCS(=O)(=O)C1 (stereo not drawn) | -1.3%

Other records follow.
Screens in order: TRPML1 agonist, PINK1 expr mod
COc1ccc(-c2[nH]nc3nc(-c4cc(OC)c(OC)c(OC)c4)cc(C(=O)O)c23)cc1
  0.5, -0.5%
CCOc1ccccc1NC(=O)Cn1nc(N2CCN(c3ccccc3)CC2)ccc1=O
  4.8, 0.1%
O=C(Nc1ccc(Br)cc1F)N1CCC2(CC1)Oc1ccccc1C(=O)N2Cc1ccccc1F
  1.6, 1.0%
CC(=O)c1cccc(NC(=O)Cn2c(=O)oc3cc(S(=O)(=O)NCc4ccccc4)ccc32)c1
  2.6, 3.0%
CC1=C(C(=O)Nc2ccc(Cl)cc2)C(c2cccs2)n2nc(SCc3cccc(Cl)c3)nc2N1 (stereo not drawn)
  0.7, 0.5%
CCOc1ccc(C(=O)c2cn(CC(=O)Nc3ccc4c(c3)OCO4)c3ccc(OCC)cc3c2=O)cc1
  0.3, 2.5%
CCC(=O)OCCCNc1nc(-c2ccc(Cl)cc2)nc2ccccc12
  3.6, 1.9%
COc1ccc(CCn2c3c(c(=O)[nH]c2=S)CN(c2ccccc2)CN3)cc1OC
  -0.7, 0.6%
COc1ccc(C2Nc3ccc(NC(=O)COC(C)=O)cc3C(=O)N2Cc2ccccc2)cc1COc1ccc(NC(C)=O)cc1 (stereo not drawn)
  0.2, 3.1%
CCOc1ccc(OCC)c(NC(=O)c2cc(S(=O)(=O)N3CCc4ccccc43)cn2C)c1
  -0.1, 5.6%
Cc1sc2c(c1C)c(=O)n(Cc1ccccc1)c(=O)n2Cc1ccc(F)cc1
  1.5, -0.2%
CCc1nn2c(=O)cc(COC(=O)COc3ccc(OC)cc3)nc2s1
  -1.0, 1.3%
Cc1ccc(C(=O)Nc2cc(-c3nc4ncccc4o3)ccc2C)c(C)c1
  0.2, -1.1%
CCCCNC(=O)[C@@H](c1ccccc1)N1Cc2ccccc2C1=O
  -0.8, 1.6%
COc1cccc(C(=O)NC(=O)Nc2ccc(-n3nc(C(F)(F)F)cc3C(F)(F)F)cc2)c1
  0.5, 2.8%
COc1ccc(NC(=O)c2ccc(-c3nc(CSc4ccccc4)c(C)o3)cc2)c(OC)c1
  1.6, 6.4%
COc1ccc2c(c1)c1c(c(=O)n(Cc3ccccc3)c(=O)n1CC(=O)Nc1cc(C)cc(C)c1)n2C
  0.2, 1.2%
Cc1cccc(N2C(=O)CSC23C(=O)N(Cc2cccc(F)c2)c2ccccc23)c1 (stereo not drawn)
  3.4, -1.0%
COc1cc(/C=C/c2ccc3ccccc3n2)cc(OC)c1OC
  -0.6, 6.3%
Fc1ccc(Nc2ncnc3onc(-c4ccc(Cl)cc4)c23)cc1Cl
  1.7, 2.2%
CCOc1ccc(CNCc2c(C(=O)O)n(Cc3ccccc3F)c3cc(OC)ccc23)cc1
  0.5, 6.0%
COc1ccc(-n2nnnc2C2CCN(S(=O)(=O)c3ccc(C(C)(C)C)cc3)CC2)cc1
  -0.6, -0.7%
CC(C)(C)OC(=O)N1CCC(c2c(C(=O)N3CCN(c4ccccc4F)CC3)cnn2C(C)(C)C)CC1
  16, -0.6%
CN(C)c1ccc(C(=O)NCc2ccc3c(c2)CCN3C(=O)c2ccccc2)cc1
  4.0, 0.4%
COc1cc(Cl)c(C)cc1Nc1nc2ccccc2nc1NS(=O)(=O)c1ccccc1
  2.4, ?
O=C(CN1C(=O)c2cccnc2Sc2ccccc21)Nc1cc(F)ccc1F
  1.5, -1.5%
Cc1cccc(NC(=O)CSc2nc(-c3cccs3)cc(C(F)(F)F)c2C#N)c1
  4.9, 6.1%
COc1cc(C(=O)Nc2sc3c(c2C#N)CCCC3)c(Br)c(OC)c1OC
  3.7, 1.8%
CCOc1ccc(-c2nc(SC(C(C)=O)C(=O)N(C)C)c3c(=O)n(C)c(=O)n(C)c3n2)cc1 (stereo not drawn)
  -0.8, 0.1%
CCOc1ccccc1N1CC(c2nc3ccccc3n2CCOc2ccc(OC)cc2)CC1=O (stereo not drawn)
  1.9, 2.7%

Sorted by number of heavy atoms (smallest number first): some entries from above
Screens in order: TRPML1 agonist, PINK1 expr mod
Cc1ccc(NC(=O)c2nnn(CC(=O)Nc3ccc(C)c(Cl)c3)c2N)c(C)c1
  0.2, -6.3%
O=C(Nc1c(C(=O)c2ccccc2)oc2ccccc12)c1cc(=O)c2ccccc2o1
  -0.8, 1.9%
COc1ccc(C2Nc3ccc(NC(=O)COC(C)=O)cc3C(=O)N2Cc2ccccc2)cc1COc1ccc(NC(C)=O)cc1 (stereo not drawn)
  0.2, 3.1%

Additional structures.
Screens in order: TRPML1 agonist, PINK1 expr mod
O=C(OC(C(=O)N1CCOCC1)c1ccccc1)c1c2c(nc3ccccc13)CCCC2 (stereo not drawn)
  -0.7, -0.1%
COC(=O)CC1Oc2ccccc2-n2cc(-c3ccc(Cl)cc3)nc21 (stereo not drawn)
  0.6, 6.1%
CC1CCc2c(sc(NC(=O)c3ccc(Cl)cc3Cl)c2C#N)C1 (stereo not drawn)
  -0.3, 3.0%
Clc1ccc(Nc2nc(-c3ccccc3)c3ccccc3n2)c(Cl)c1
  0.6, 3.0%
Cc1cccc(N(CC(N)=O)C2SC(=O)N(Cc3cccc(C(=O)O)c3)C2=O)c1 (stereo not drawn)
  0.8, 2.2%
CCC(=O)C1=C(c2ccc(OC)c(OC)c2)N(C(=O)CC)n2c(nnc2-c2ccc(C)cc2)S1
  1.9, -0.2%
CC(=O)c1c(C)oc2ccc(N(C(=O)Oc3ccccc3)S(=O)(=O)c3ccccc3)cc12
  0.0, 0.2%
CCc1ccc(Sc2cc(C(=O)NCc3cccc(OC)c3)c3ccccc3n2)cc1
  7.2, -5.2%
COC(=O)N1CCCc2cc(S(=O)(=O)N3CCN(c4ccccc4)CC3)ccc21
  2.7, 1.3%
Cc1cc(Nc2cccc(F)c2)n2nc(-c3ccco3)nc2n1
  0.2, -0.1%
COc1cccc(NCc2nnc(SC(C(=O)N(C)C)c3ccccc3)n2C2CCCCC2)c1 (stereo not drawn)
  1.7, -0.5%
COC(=O)c1cc(NC(=O)c2sc3ccccc3c2Cl)cc(C(=O)OC)c1
  0.1, 11%
CCn1cc(C(=O)NCCc2ccc(Cl)cc2)c(=O)c2cc(S(=O)(=O)N3CCc4ccccc4C3)ccc21
  -0.3, -0.2%
O=C(CSc1ccc2nc(-c3ccccc3)cn2n1)Nc1cccc(F)c1
  -0.7, 0.5%
Cc1ccc(Cl)cc1-n1c(=O)cc(N2CCN(c3ccc(F)cc3)CC2)[nH]c1=O
  1.3, 1.2%
CCCN(CCC)CCNC(=O)c1cc(Sc2ccc(Cl)cc2)nc2ccccc12
  1.5, -0.8%
Cc1ccc(CCNC(=O)CCCn2c(=O)c3ccccc3n(CC(=O)Nc3cc(Cl)ccc3C)c2=O)cc1
  -0.8, 1.0%
CCn1cc2nc(SCc3ccccc3Cl)n(Cc3ccc(OC)cc3)c(=O)c2n1
  -0.4, 2.2%
CCOc1cc(C2c3c(oc4ccccc4c3=O)C(=O)N2Cc2ccc(OC)cc2)ccc1O (stereo not drawn)
  1.9, 1.4%
CCc1nnc(NC(=O)c2cc(=O)c3cc(C)ccc3o2)s1
  -0.8, 3.2%
COc1ccc(N(C)C(=O)Cn2cnc3sc(C)c(S(=O)(=O)N4CCN(c5ncccn5)CC4)c3c2=O)cc1
  -0.4, 1.8%
Cn1ccc2cc(S(=O)(=O)N3CCN(C(=O)Nc4ccccc4F)CC3)ccc21
  1.2, -0.9%
Cc1ccc(-n2c(=O)c3c(C)c(C(=O)N(C)C)sc3n(CC(=O)C(C)(C)C)c2=O)cc1C
  1.0, 0.9%
COc1ccc(NC(=O)CN(C)S(=O)(=O)c2ccc(C(=O)N3CCOCC3)s2)cc1
  -0.8, 0.2%
Cc1cc(C)c2oc(C(=O)Nc3ccc(S(=O)(=O)N4CCCCC4)cc3)cc(=O)c2c1
  4.6, 3.2%
O=C(c1ccc2c(c1)N(Cc1ccccc1F)C(=O)c1ccccc1S2(=O)=O)N1CCC(Cc2ccccc2)CC1
  -0.4, 2.4%
CCOc1ccc(CCNC(=O)c2ccc(Cn3c(=O)c4cccn4c4cccnc43)cc2)cc1
  1.6, -0.6%
Cc1ccc(-n2nc(C(=O)N3CCN(c4cc(Cl)ccc4C)CC3)c3c4ccccc4n(C)c3c2=O)cc1
  0.5, 0.5%

Compound profiles, from the list above. Screens in order: TRPML1 agonist	PINK1 expr mod
Cc1ccc(-n2c(=O)c3c(C)c(C(=O)N(C)C)sc3n(CC(=O)C(C)(C)C)c2=O)cc1C in the list: 1.0	0.9%
Cc1cccc(NC(=O)CSc2nc(-c3cccs3)cc(C(F)(F)F)c2C#N)c1 in the list: 4.9	6.1%
Cc1ccc(C(=O)Nc2cc(-c3nc4ncccc4o3)ccc2C)c(C)c1 in the list: 0.2	-1.1%
Cc1cc(C)c2oc(C(=O)Nc3ccc(S(=O)(=O)N4CCCCC4)cc3)cc(=O)c2c1 in the list: 4.6	3.2%
CC(=O)c1cccc(NC(=O)Cn2c(=O)oc3cc(S(=O)(=O)NCc4ccccc4)ccc32)c1 in the list: 2.6	3.0%

A portion of the library (hit frequency here may not be typical).
